D2 PAM: Beta-Arrestin HTS for Positive Allosteric Modulators of the Human D2 Dopamine Receptor: Potentiators | DiscoveRx D2 beta-arrestin cells, luminescence, 90 min; 100% = 57 uM dopamine signal | potentiation, % (concentration not given with the values) | 360,000 tested, 0.23% active; active = potentiation of 50% or more; inconclusive = 30% to 50%; inactive = 30% or less;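 also: compound concentration not given in the record; tested on top of an EC20 dose of dopamine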
Target sequence (P14416 whole entry, looked up): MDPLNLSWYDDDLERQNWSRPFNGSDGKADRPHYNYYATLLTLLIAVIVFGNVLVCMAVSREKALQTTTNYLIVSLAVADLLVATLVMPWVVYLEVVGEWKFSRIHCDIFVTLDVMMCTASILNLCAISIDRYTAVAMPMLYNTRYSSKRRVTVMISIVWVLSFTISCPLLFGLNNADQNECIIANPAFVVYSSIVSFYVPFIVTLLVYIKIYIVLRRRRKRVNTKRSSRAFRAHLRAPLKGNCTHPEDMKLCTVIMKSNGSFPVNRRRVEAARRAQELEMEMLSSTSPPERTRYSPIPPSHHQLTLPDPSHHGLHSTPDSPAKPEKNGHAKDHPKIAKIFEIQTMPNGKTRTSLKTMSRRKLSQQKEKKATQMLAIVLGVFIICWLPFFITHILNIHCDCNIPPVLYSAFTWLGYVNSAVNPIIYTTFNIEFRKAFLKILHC
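PathHunter D2 cells, attached overnight at 37 deg C, received compound in DMSO plus dopamine at EC20 (50 nM final) for 90 min at 37 deg C. Beta-arrestin recruitment was read as luminescence after 1 h with detection reagent at ambient temperature.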
D2 agonist: Beta-Arrestin HTS for Positive Allosteric Modulators of the Human D2 Dopamine Receptor: Agonists. 360,000 tested, 0.084% active. D(2) dopamine receptor (Homo sapiens), P14416. DiscoveRx PathHunter D2 beta-arrestin, luminescence, 90 min; 100% = 57 uM dopamine signal. activation, % (concentration not given with the values); in the data active = activation above about 40%; inconclusive = about 15% to 40%; inactive = below about 15%; also: compound concentration not given in the record; the text of the record calls up to 30% inactive
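DiscoveRx PathHunter D2 beta-arrestin cells (2,100/well) attached overnight, then compound-stimulated 90 min at 37 C in HBSS/10 mM HEPES/0.1% Tween-20 buffer; beta-galactosidase complementation read by luminescence after 1 h at ambient temperature. Dopamine 57 uM final (EC100) as control.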
gsp antag: qHTS for Antagonists of gsp, the Etiologic Mutation Responsible for Fibrous Dysplasia/McCune-Albright Syndrome: qHTS. gsp-mutant cells, cAMP HTRF, 30 min; control for the full effect not named in the record. Potency, µM (doses to about 76.9 µM), without a hit: at the top dose activity change, negative = inhibition, hits mostly inhibitors. 340,000 tested, 0.4% active. AID 624288, 2012; active = falling curve of any shape with a large fitted effect; inconclusive = falling curve, mostly with a smaller effect; inactive = flat or rising curve; cell line not stated here;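 also: intracellular cAMP measured with PDE inhibitor Ro 20-1724 present during compound exposure; potency is read from the fitted curve at half-maximal effect; % is scaled to controls: 0 for no effect and ±100 for the full control effect; nearly all actives have a fitted effect of over 65% in size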
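Cells in G418 medium, seeded 16-24 h, 37C; buffer exchange to DPBS + 1 mM CaCl2, 0.5 mM MgCl2, 0.05% BSA; cpds in DMSO + […] (300 uM stock), 30 min 37C; HTRF cAMP detection.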
Six1-Eya2 inh: qHTS Assay for Inhibitors of the Six1/Eya2 Interaction | Homeobox protein SIX1 (Homo sapiens) + Protein phosphatase EYA2 (Homo sapiens), … | AlphaScreen GST-Six1/His-Eya2 binding, biochemical; hits give low values; control for the full effect not named in the record | activity change, % (no concentration beside the values) | 360,000 tested, 0.56% active | AID 651725, 2012; in the data active = activity change below about -65%; inconclusive = about -30% to -65%; inactive = above about -30%; also: % is scaled to controls: 0 for no effect and ±100 for the full control effect; compound concentration not given in the record
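Homogeneous AlphaScreen proximity assay pairing GST-Six1 with His-tagged Eya2 (added as 5X mix: 250 nM and 500 nM) in 50 mM Tris pH 8.0, 300 mM NaCl, 1 mM TCEP. Glutathione donor and nickel acceptor beads; 1 h, 37 °C, dark.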
CtBP-E1A inh: qHTS Assay for Inhibitors of the CtBP/E1A Interaction | CtBP / adenovirus E1A interaction (AlphaScreen) | 340,000 tested, 0.49% active | AlphaScreen GST-E1A/His-CtBP binding, 1536-well; hits give low values; control for the full effect not named in the record | activity change, % (test concentration not listed) | AID 651724, 2012; in the data active means activity change below about -65%; inconclusive means about -30% to -65%; inactive means above about -30%; also: % is scaled to controls: 0 for no effect and ±100 for the full control effect; compound concentration not given in the record
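Steps: dispense buffer (Tris pH 8.0, NaCl 300 mM, TCEP 1 mM, BSA, Tween 20); add 5X protein mix (GST-E1A, His-CtBP, 125 nM each); pin 23 nL compound; 2 h at 37 °C, dark; add 5X beads (50 ug/mL); 1 h; read.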
gsp ag: qHTS for Agonist of gsp, the Etiologic Mutation Responsible for Fibrous Dysplasia/McCune-Albright Syndrome: qHTS. 340,000 tested, 0.13% active. gsp mutant cells, cAMP HTRF, 30 min; control for the full effect not named in the record. Potency, µM (doses to about 76.9 µM), inactives show at the highest dose activation (cAMP increase), actives largely listed as activators; active = well fitted activation curve with a large enough effect; inconclusive = small, poorly fitted or top-dose-only effect, or another doubt; inactive = no such curve, though single readings can be large or run the other way; cell line not stated here;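 also: phosphodiesterase inhibitor Ro 20-1724 added with compounds to block cAMP breakdown; potency is read from the fitted curve at half-maximal effect; nearly all actives have a fitted effect of over 60% in size; about a fifth of the inactives were tested at one dose only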
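Cells stably selected in G418 were plated at 2000/well, grown 16-24 hr, then given compounds in DMSO with the PDE inhibitor […] (300 uM solution added) for 30 min at 37C; cAMP was read by HTRF.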
The depositor's hits bear a star; ? = inconclusive; nt = not tested or not shown; [ ] = another dose, or the depositor's remark.

Labels used below – A = D2 PAM; B = D2 agonist; C = gsp antag; D = Six1-Eya2 inh; E = CtBP-E1A inh; F = gsp ag
Cc1ccc(S(=O)(=O)N(C)C)cc1NC(=O)c1ccc(-n2cncn2)c([N+](=O)[O-])c1
  A: 1 | B: ? | C: ? | D: -3 | E: 2 | F: -14%

Cc1ccc(C2(C)NC(=O)N(CC(=O)N(C)CC(=O)Nc3cccc4ccccc34)C2=O)cc1 (centres undefined)
  A: -67 | B: -1.3 | C: -8% | D: -1 | E: -3 | F: -13%[15.4 µM]

Cn1c(=O)n(C)c2cc(NC(=O)CSc3ccccc3)ccc21
  A: 4 | B: 0.2 | C: -8% | D: -10 | E: -24 | F: 12%

COc1ccc(CCNC(=O)c2c(O)c3c([nH]c2=O)CCCC3)cc1OC
  A: -5 | B: 0.7 | C: 20% | D: -2 | E: 5 | F: -15%

CC(=O)Nc1ccc(NC(=O)[C@H](C)NC(=O)c2ccco2)cc1
  A: -1 | B: -2.4 | C: 5% | D: 6 | E: 4 | F: 19%[15.4 µM]

CC(=O)c1cccc(NC(=O)c2cc(=O)[nH]c3ccccc23)c1
  A: 1 | B: -1.8 | C: 5% | D: -10 | E: 8 | F: -1%

CC(NC(=O)C1CCN(CCOc2ccc(Cl)cc2)CC1)c1cccc2ccccc12 (centres undefined)
  A: -12 | B: -2.0 | C: nt | D: 3 | E: 0 | F: nt

Nc1nc(SCc2ccc3c(c2)OCCO3)n[nH]1
  A: 6 | B: -1.5 | C: 11% | D: 9 | E: 3 | F: -62%[inhibitor]

Cc1ccc(COc2ccc(/C=N/NC(=O)c3ccc(CN4CCOCC4)cc3)cc2)cc1
  A: -2 | B: -3.7 | C: 6% | D: 14 | E: 3 | F: 8%[15.4 µM]

CCn1c2c(c3ccc(OC)cc31)CCCC2=O
  A: -1 | B: 1.0 | C: -18% | D: 0 | E: 0 | F: -1%

COc1ccc(C)cc1NC(=O)NNS(=O)(=O)c1ccc(NC(C)=O)cc1
  A: 5 | B: -3.3 | C: 10% | D: 4 | E: -1 | F: -10%

C=CCC(=O)NC1CC(C)(C)Cc2c1cnn2-c1ccc(C)cc1 (centres undefined)
  A: 0 | B: 4.5 | C: -7% | D: -2 | E: nt | F: -26%

CN1CCOC1c1ccc(C2OCCN2C)cc1 (centres undefined)
  A: -23 | B: -1.5 | C: -3% | D: -1 | E: 11 | F: -4%[15.4 µM]

COc1ccc(N2C(=O)CCC(C(=O)Nc3ccccn3)C2c2ccc(OC)c(OC)c2)cc1 (centres undefined)
  A: -11 | B: -1.8 | C: 10% | D: 2 | E: 0 | F: 6%

O=C(NCc1cccc(Cl)c1)c1ccc(CS(=O)Cc2ccc(Cl)cc2)o1 (centres undefined)
  A: -12 | B: -1.7 | C: -25% | D: 0 | E: -11 | F: 6%

(continued)
Labels used below – A = D2 PAM; B = D2 agonist; C = gsp antag; D = Six1-Eya2 inh; E = CtBP-E1A inh; F = gsp ag
Cc1cccc(-c2nc(CS(=O)CC(=O)NCc3ccco3)c(C)o2)c1 (centres undefined)
  A: 0 | B: -3.5 | C: -12% | D: -2 | E: -1 | F: 4%

CCOC(=O)/C=C/C(=O)OCC(=O)Nc1ccc(Cl)cn1
  A: -3 | B: 0.3 | C: -14% | D: 9 | E: 6 | F: 19%

N#Cc1c(CSCC(=O)O)cc(=O)n2c1[nH]c1ccccc12
  A: 2 | B: -2.2 | C: -4% | D: -4 | E: -4 | F: 40%

O=C(NCCCCNC(=O)c1ccc(Cl)s1)c1ccc(Cl)s1
  A: -13 | B: 1.6 | C: 3% | D: 7 | E: 7 | F: 1%

Cc1ccc(S(=O)(=O)N2CCC(C(=O)OCCOc3ccccc3)CC2)cc1C
  A: -5 | B: -4.6 | C: 1% | D: 17 | E: 16 | F: -41%[inhibitor]

COc1ccc(CCNC(=O)CN2C(=O)NC(Cc3c[nH]c4ccccc34)C2=O)cc1 (centres undefined)
  A: 0 | B: -3.0 | C: -1% | D: -3 | E: 9 | F: -9%

Cc1ccc(C2(C(F)(F)F)N=C3Sc4cc(C)cc(C)c4N3C(=O)N2)cc1 (centres undefined)
  A: 3 | B: -2.5 | C: -1% | D: -12 | E: -24 | F: -5%

COC(=O)Cn1c(=NC(=O)c2ccc(OC)cc2)sc2cc(OC)ccc21
  A: -4 | B: -0.8 | C: -11% | D: 12 | E: 2 | F: 30%

COc1ccc(NC(=O)CSCC(=O)Oc2c(OC)cccc2OC)cc1
  A: -12 | B: -5.9 | C: 0% | D: 5 | E: 1 | F: 0%[15.4 µM]

COCCOC(=O)C1=C(C)NC(=O)NC1c1ccc(-c2cc(Cl)ccc2Cl)o1 (centres undefined)
  A: -3 | B: 1.3 | C: -17% | D: -16 | E: 0 | F: -4%

CC(C)NC(=S)N=Nc1c(O)[nH]c2ccc(C(C)C)cc12
  A: -13 | B: -17 | C: -27% | D: -13 | E: nt | F: 16%

Cc1ccc(S(=O)(=O)N(C)c2ccc3sc(C)nc3c2)cc1
  A: -2 | B: -2.5 | C: 6% | D: 4 | E: 4 | F: 10%

S=C(NCC1CCCO1)N1CCN(Cc2ccccc2Cl)CC1 (centres undefined)
  A: -3 | B: -3.9 | C: 2% | D: 6 | E: nt | F: ?

COc1cccc(C(C)(O)c2nc(-c3cncnc3)cs2)c1 (centres undefined)
  A: -5 | B: -3.0 | C: nt | D: 1 | E: 2 | F: nt

CC(NC(=O)/C=C/c1ccco1)c1nc2ccccc2n1Cc1ccccc1F (centres undefined)
  A: -13 | B: 0.8 | C: -9% | D: 1 | E: 6 | F: -4%

Carrying on:
Labels used below – A = D2 PAM; B = D2 agonist; C = gsp antag; D = Six1-Eya2 inh; E = CtBP-E1A inh; F = gsp ag
CCCCN1C(=O)/C(=c2\sc3nc(=O)c(-c4ccccc4)nn3c2=O)c2ccccc21
  A: -19 | B: -2.2 | C: -5% | D: 6 | E: 0 | F: 10%

O=C(NN1C(=O)/C(=C/C=C/c2ccco2)SC1=S)c1ccncc1
  A: -5 | B: 8.5 | C: -20% | D: ? | E: -25 | F: 18%

CCOc1ccc2c(c1)C(=O)C(=O)N2CC1COc2ccccc2O1 (centres undefined)
  A: -6 | B: 2.3 | C: ? | D: 2 | E: 0 | F: 24%

CCCCNCC(=O)Nc1sc(C)c(C)c1C(=O)OCC
  A: -3 | B: 0.4 | C: 1% | D: 1 | E: 13 | F: -39%[inhibitor]

Cc1c(C(=O)O)oc2ccc(S(=O)(=O)N3CCCC3)cc12
  A: 1 | B: 3.3 | C: 1% | D: 1 | E: nt | F: ?

CCOc1ccccc1NS(=O)(=O)c1ccc2c(c1)NC(=O)CCS2
  A: 1 | B: 4.1 | C: 0% | D: 27 | E: 45 | F: 2%

O=S(=O)(c1cccc(NC(=S)N2CCN(c3ccc(F)cc3)CC2)c1)C(F)F
  A: -20 | B: 2.1 | C: ? | D: -9 | E: nt | F: -13%

CN(C)c1cccc(O)c1
  A: 0 | B: -0.9 | C: -10% | D: 2 | E: -26 | F: nt

Cn1nc(C(F)(F)F)c(CN2CC(C)(C)C2=O)c1N1CCOCC1
  A: -7 | B: -5.1 | C: 3% | D: 4 | E: -1 | F: 24%[15.4 µM]

Cc1ccc(S(=O)(=O)NCC(=O)N(CC(=O)NCC2CCCO2)Cc2ccccc2)cc1 (centres undefined)
  A: -18 | B: -4.9 | C: -5% | D: -3 | E: -1 | F: 2%

O=C1CC(=O)Nc2cc(S(=O)(=O)N3CCN(c4ccc([N+](=O)[O-])cc4)CC3)ccc2N1
  A: -8 | B: 0.6 | C: 1% | D: -11 | E: nt | F: 3%

CCOC(=O)Nc1ccc([N+](=O)[O-])cc1OC
  A: 5 | B: -0.5 | C: 21% | D: 1 | E: 3 | F: 7%

O=C(Nc1ccccn1)c1ccc(C(=O)c2ccccc2)cc1
  A: -5 | B: -2.9 | C: -5% | D: 1 | E: -5 | F: 0%[15.4 µM]

c1ccc(CN2CCN(c3cnc4ccccc4n3)CC2)cc1
  A: -14 | B: 2.0 | C: -17% | D: 12 | E: nt | F: 2%

COc1ccc(-n2c(/C=C3\C(=O)N(C)c4ccccc43)nc3ccccc3c2=O)cc1
  A: 3 | B: -0.4 | C: 12% | D: 6 | E: 3 | F: -12%[15.4 µM]

The list continues:
Labels used below – A = D2 PAM; B = D2 agonist; C = gsp antag; D = Six1-Eya2 inh; E = CtBP-E1A inh; F = gsp ag
CCCOc1ccc(C(=O)NNC(=O)CCNC(=O)c2ccco2)cc1OC
  A: 14 | B: -2.0 | C: 8% | D: 6 | E: -19 | F: -45%[inhibitor]

Cc1ccc(S(=O)(=O)N2CCN(C(=O)COC(=O)c3ccc(O)cc3)CC2)c(C)c1
  A: -4 | B: -0.3 | C: -5% | D: -1 | E: -1 | F: -3%

Cc1cc(C)nc(-n2nc(C)cc2NC(=O)c2cccc(S(=O)(=O)N(C)C)c2)n1
  A: -8 | B: -3.9 | C: -9% | D: -5 | E: -19 | F: 19%

Cc1ccc2[nH]c(=O)c(CN(CCCN(C)C)C(=O)Nc3ccc(Cl)cc3)cc2c1
  A: -14 | B: -1.6 | C: 14% | D: -1 | E: 1 | F: 4%

CC1(C(=O)Nc2ccc(Cl)c(Cl)c2)CCN1C(=O)Cc1cccc2ccccc12 (centres undefined)
  A: -15 | B: -6.1 | C: nt | D: -21 | E: -12 | F: nt

CC1=C(C#N)C(=O)NC1(C)O (centres undefined)
  A: 1 | B: -3.3 | C: nt | D: 2 | E: 3 | F: -8%

CCC(Sc1nc2ccsc2c(=O)n1Cc1ccc(C(=O)O)cc1)C(=O)Nc1ccc(Cl)cc1 (centres undefined)
  A: -3 | B: -1.2 | C: nt | D: -10 | E: -3 | F: ?

Laid out differently: 5 of the compounds above
Order of values – D2 PAM, D2 agonist, gsp antag, Six1-Eya2 inh, CtBP-E1A inh, gsp ag
- O=C(NCc1cccc(Cl)c1)c1ccc(CS(=O)Cc2ccc(Cl)cc2)o1 (centres undefined)
    -12, -1.7, -25%, 0, -11, 6%
- CC1=C(C#N)C(=O)NC1(C)O (centres undefined)
    1, -3.3, nt, 2, 3, -8%
- CC1(C(=O)Nc2ccc(Cl)c(Cl)c2)CCN1C(=O)Cc1cccc2ccccc12 (centres undefined)
    -15, -6.1, nt, -21, -12, nt
- CCOc1ccc2c(c1)C(=O)C(=O)N2CC1COc2ccccc2O1 (centres undefined)
    -6, 2.3, ?, 2, 0, 24%
- Cc1ccc(S(=O)(=O)N2CCN(C(=O)COC(=O)c3ccc(O)cc3)CC2)c(C)c1
    -4, -0.3, -5%, -1, -1, -3%

Compound activity (PubChem)
